From PubChem BioAssay
VDR inh: Inhibitors of the vitamin D receptor (VDR): qHTS | AID 504847, 2011 | Potency, µM, for the others: max response, negative = inhibition, usual class: inhibitors | 400,000 tested, 0.93% active | VDR-SRC2-3 peptide fluorescence polarization, 2 h | Vitamin D3 receptor (Homo sapiens), P11473; active = well fitted inhibition curve with a large enough effect; inconclusive = small, poorly fitted or top-dose-only effect, or another doubt; inactive = no such curve, though single readings can be large or run the other way; note: series mostly up to about 120 µM
Target sequence (P11473 whole entry, looked up): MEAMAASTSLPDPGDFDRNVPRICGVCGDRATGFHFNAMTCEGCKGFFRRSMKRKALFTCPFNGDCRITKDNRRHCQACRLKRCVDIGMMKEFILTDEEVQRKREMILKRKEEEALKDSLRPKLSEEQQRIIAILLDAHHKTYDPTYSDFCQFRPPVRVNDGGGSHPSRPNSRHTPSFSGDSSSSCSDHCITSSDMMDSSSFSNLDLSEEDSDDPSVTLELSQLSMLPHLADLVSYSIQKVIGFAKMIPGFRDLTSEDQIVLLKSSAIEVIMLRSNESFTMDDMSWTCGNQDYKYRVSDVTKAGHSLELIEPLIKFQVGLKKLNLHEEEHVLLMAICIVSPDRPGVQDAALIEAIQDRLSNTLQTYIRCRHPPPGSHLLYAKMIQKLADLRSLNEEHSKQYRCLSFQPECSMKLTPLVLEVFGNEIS
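FP read-out; VDR + SRC2-3 coactivator peptide; 23 nl compound by pintool; 2 h RT incubation; reagents held at 4 deg C, protected from light.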
Starred values were filed as active, the others as inactive; u = inconclusive; & = joins results of further samples. % is set by controls: 0 for no effect and ±100 for the full control effect; potency is the fitted concentration of half-maximal effect.

smiles | VDR inh
Cn1cc(C(=O)OCC2CCN(CCNS(C)(=O)=O)CC2)c2ccccc21 | 0%&-7%
CC1Cc2c([nH]c3ccccc23)C2c3ccccc3CN12 (centres undefined) | -3%
CCOC(=O)N1CCN(C(=O)CSc2nc(=O)n3ccc(C)cc3n2)CC1 | -27%
CCOC(=O)/C(C#N)=C/c1c(Oc2cccc(C)c2)nc2ccccn2c1=O | -5%
COC(=O)c1ccc(/C=C/C(=O)OCC(=O)Nc2ncc(Cl)cc2Cl)cc1 | 14%
C=C(C)c1cccc(C(C)(C)NC(=O)NC2CC(C)(C)NC(C)(C)C2)c1 | 10%
COCCOC(=O)c1c(C)oc2ccc(NS(=O)(=O)c3ccccc3)cc12 | 0%
CCOC(=O)/C(C#N)=C/c1cc2ccccc2nc1N1CCCCC1 | -19%
CCN(CC)CCNCC(O)(c1ccc(Cl)cc1)c1ccc(Cl)cc1 | 3%
COCCNc1cc(C)c(C#N)c2nc3ccccc3n12 | -3%
CCc1ccccc1NC(=O)CSc1ncc(S(=O)(=O)c2ccc(C(C)C)cc2)c(N)n1 | -9%
CCOC(=O)c1cc(NC(=O)N(CC)CC)c(C)nc1C | 7%

3 compounds from above, ordered by length of the SMILES, ascending.
smiles | VDR inh
CCN(CC)CCNCC(O)(c1ccc(Cl)cc1)c1ccc(Cl)cc1 | 3%
C=C(C)c1cccc(C(C)(C)NC(=O)NC2CC(C)(C)NC(C)(C)C2)c1 | 10%
CCc1ccccc1NC(=O)CSc1ncc(S(=O)(=O)c2ccc(C(C)C)cc2)c(N)n1 | -9%

The list continues.
smiles | VDR inh
COc1ccc(-c2cc3c(=O)n(CC(=O)Nc4ccc(Cl)cc4)ncn3n2)cc1 | -6%
CCc1ccc(NC(=O)c2ccc(F)c(S(=O)(=O)N3CCC(C)CC3)c2)cc1 | 7%
Cc1cc(C)cc(OCC(=O)N/N=C/c2ccc([N+](=O)[O-])o2)c1 | -15%
COCCNC(=O)c1cc(-c2ccccc2)nn1CC1CC(c2cccc([N+](=O)[O-])c2)=NO1 (centres undefined) | -19%
Cn1c(CCNC(=O)c2ccco2)nc2cc(NC(=O)NC3CCCCC3)ccc21 | 6%
N#CCCn1c(=S)[nH]c2ccccc21 | 3%
COc1ccc(CCN(CC(=O)NC2CCCC2)C(=O)Cn2nnc(-c3ccc(C)o3)n2)cc1OC | -17%
N#Cc1c(-c2ccccc2)ccnc1N1CCOCC1 | -16%
CN(CCOc1ccc(Br)cc1)C(=O)CNC(=O)c1ccc2ccccc2c1 | -1%
COCc1ccc(C(=O)N2CCCC(CNC(=O)c3ccc(F)cc3)C2)o1 (centres undefined) | -4%
CCc1cc(=O)oc2c(C)c(OCC(=O)NCc3ccccn3)ccc12 | 5%
O=C(CN(C(=O)CNS(=O)(=O)c1ccccc1)C1CCCC1)NCC1CCCO1 (centres undefined) | 3%

3 compounds already listed, ordered by the number in VDR inh, highest first:
smiles | VDR inh
CCc1ccc(NC(=O)c2ccc(F)c(S(=O)(=O)N3CCC(C)CC3)c2)cc1 | 7%
CCc1cc(=O)oc2c(C)c(OCC(=O)NCc3ccccn3)ccc12 | 5%
O=C(CN(C(=O)CNS(=O)(=O)c1ccccc1)C1CCCC1)NCC1CCCO1 (centres undefined) | 3%

Additional structures:
smiles | VDR inh
CCOc1ccc(C(=O)NCC(=O)OCC(=O)Nc2ccccc2OCC)cc1 | 1%
O=[N+]([O-])c1ccc(N=NN(CCO)CCO)cc1 | -3%
CC(=O)NC(Cc1ccc(F)cc1)C(=O)NC1CCN(c2ncccc2[N+](=O)[O-])CC1 (centres undefined) | -10%
c1csc(CNc2nc3ccccc3n2CCN2CCOCC2)c1 | 7%
COc1ccc(CNC(=O)CCc2cc(OC)c(OC)c(OC)c2)cc1 | -5%
O=[N+]([O-])c1ccc(N2CCN(S(=O)(=O)c3ccc(Cl)c(Cl)c3)CC2)cc1NCCN1CCOCC1 | -8%
OC(c1ccccc1)c1ccncc1 (centres undefined) | -13%
CCCCC/C=C\C[C@H](O)/C=C/C=C/C=C/[C@@H](O)CCCC(=O)O | 8%
Cc1cccc(C)c1NC(=S)N(CCN(C)C)Cc1cccs1 | 14%
COc1ccc(C(=O)CC(=O)C(=O)Nc2ccc(OC)c(Cl)c2)cc1 | 2%
COc1ccc(-c2cc(C(=O)Nc3sc4c(c3C#N)CCCC4)c3ccccc3n2)cc1 | -13%
CCOC(=O)c1sc2ccccc2c1OC(=O)c1ccc(C)cc1 | -24%
CCCC(=O)N1CCc2cc(OC)c(OC)cc2C1COc1ccc2c(C)cc(=O)oc2c1 (centres undefined) | -7%
COc1ccc(-c2n[nH]c(=S)n2CC(C)C)cc1 | -9%
O=C(CSc1ccc(F)cc1)NC1CCCCC1 | 2%
O=c1c(Cl)c(N2CCOCC2)cnn1-c1nc2ccccc2[nH]1 | -7%
O=C(c1ccccc1)c1ccc(Sc2ccc([N+](=O)[O-])cc2)cc1 | -12%
Cc1noc(C)c1S(=O)(=O)N1CCCC(C(=O)NCc2ccccn2)C1 (centres undefined) | 9%
CC(OC(=O)c1ccccc1NCCO)C(=O)Nc1ccc(S(=O)(=O)N2CCOCC2)cc1 (centres undefined) | -9%
COc1ccccc1CC(=O)NC1CCC(C)CC1 (centres undefined) | 0%
O=C(N/N=C/c1cccc2cccnc12)[C@H]1C[C@@H]1c1ccccc1 | 8%
COC(=O)Cn1c(C(O)c2ccccc2)nc2ccccc21 (centres undefined) | -8%
COc1ccc(-c2cc3ccc(OCC(=O)NCC4CCC(C(=O)O)CC4)cc3oc2=O)cc1 (centres undefined) | -18%
CSCCOC(=O)c1[nH]c2c(c1C)C(=O)CC(c1ccco1)C2 (centres undefined) | -14%

Single entries from above.
O=C(CSc1ccc(F)cc1)NC1CCCCC1 in VDR inh → 2%
CSCCOC(=O)c1[nH]c2c(c1C)C(=O)CC(c1ccco1)C2 (centres undefined) in VDR inh → -14%

(more compounds)
smiles | VDR inh
COc1ccc(N(CC(=O)N2CCc3ccccc3C2)S(=O)(=O)c2c(C)[nH]c(=O)[nH]c2=O)cc1 | -17%
CON(C)S(=O)(=O)c1cccc(C(=O)Nc2cccc(S(=O)(=O)NC3=NCCCCC3)c2)c1 | 11%
Cc1ccc(OCCNC(=O)CNC(=O)c2ccc3c(c2)OCO3)cc1 | -15%
COc1ccc(C2=CC(c3ccccc3Cl)n3nc(-c4ccc(Cl)cc4)nc3N2)cc1 (centres undefined) | -10%
Cc1cc(C)c(OCC(=O)Nc2ccc3c(c2)OCO3)cc1C | -4%
CC(C(=O)Nc1cc([N+](=O)[O-])ccc1Cl)N1CCN(c2ccccc2O)CC1 (centres undefined) | 3%
O=C(NC1CCN(Cc2ccccc2)CC1)c1ccc(CS(=O)c2ccc(F)cc2)o1 (centres undefined) | 17%
CCN(c1ccccc1)S(=O)(=O)c1ccc(NC(=O)c2nc(SC(C)C)ncc2Cl)cc1 | -5%
COCCCNC(=O)c1cc(Sc2ccc(F)cc2)nc2ccccc12 | -18%
O=C(COc1ccccc1)OCC(=O)N1CCCc2ccccc21 | -7%
C=CCNC(=O)C1CCN(c2nc(C)cc(-c3ccccc3)n2)CC1 | 14%
O=C(NCCCn1ccnc1)c1nn2c(C(F)(F)F)cc(-c3ccccc3)nc2c1Cl | 7%
Cc1c(-c2ccccc2)oc2c(C(=O)N3CCN(c4ccc([N+](=O)[O-])cc4)CC3)cccc2c1=O | -12%
Cc1ccc(NS(=O)(=O)c2ccc(C(C)(C)C)cc2)cn1 | 2%
Cc1nn(-c2cccc([N+](=O)[O-])c2)c(N)c1-c1ccccc1 | 0%
O=C(CSc1nnc(CNC(=O)c2c(F)cccc2Cl)o1)Nc1ccccc1 | -1%
Cc1ccc(CN(C(=O)c2ccco2)C2CCS(=O)(=O)C2)cc1 (centres undefined) | 16%
N#Cc1cc([N+](=O)[O-])ccc1N1CCCC1 | u
Cc1c(C#N)c(O)n(CCO)c(=O)c1N=Nc1ccc2c(c1)COC2=O | -8%
CCc1ccc(NC(=O)CSc2nnc(-c3cnccn3)n2C)cc1 | 8%
CC(C)c1cccc(-c2ccc3c(c2)S(=O)(=O)c2cccc(C(=O)NCc4ccccc4)c2C3=O)c1 | -13%
Cc1sc2ncnc(N3CCC(C(=O)N(C)CC(=O)Nc4ccccc4Cl)CC3)c2c1C | 5%
CN(Cc1ccccc1)C(=O)CSc1n[nH]c(N)n1 | -10%
O=C(CCN1C(=O)c2ccccc2S1(=O)=O)NCc1ccccc1Cl | -2%
CC1CCCN(Cc2nc3c(c(=O)n(C)c(=O)n3C)n2CCCc2ccccc2)C1 (centres undefined) | -18%
Cc1ccc(NC(=O)NCc2cccnc2)cc1C | 3%
COc1cccc(NC(=O)c2ccc3snnc3c2)c1 | 2%
COc1nc(OC)nc(N2CCC(C(=O)Nc3cccc4ccccc34)CC2)n1 | -3%
COc1ccc(NC(=O)c2cccnc2)cc1 | 7%
COC(=O)CC(NC(=O)c1cccs1)c1ccc(OC)c(OC)c1 (centres undefined) | -4%
CN(C)CCCOC(=O)c1ccc(Br)cc1 | 0%
CCOC(=O)/C(C#N)=C/c1cn(CCC(=O)O)nc1-c1ccc(Br)cc1 | -9%
O=C(O)CCC(=O)Nc1ccc(SSc2ccc(NC(=O)CCC(=O)O)cc2)cc1 | u
CC(=O)N(CC(C)C(=O)O)c1c(I)cc(I)c(N)c1I (centres undefined) | -17%
CC(=O)N1CCOc2ccc(S(=O)(=O)N3CCC(C(=O)NCc4ccc(C)cc4)CC3)cc21 | 3%
NNC(=O)c1[nH]c2ccc(Cl)cc2c1-c1ccccc1 | 79µM*
CNC(=O)c1sc(-c2ccc(Cl)cc2)nc1C | -6%
CCCCc1ccc(S(=O)(=O)Nc2cc(C)on2)cc1 | 3%
CC(C)Cc1nc2sc3c(SCC(N)=O)ncnc3c2c2c1CCC2 | -24%
O=C(c1ccc2c(c1)OCCCO2)N1CCCCC1 | 2%
O=C(Nc1cccc(S(=O)(=O)N2CCCCCC2)c1)C1CCN(C(=O)c2ccc(Cl)cc2)CC1 | 1%
COc1ccc(/C=C/CN2CCC(CO)(Cc3ccccc3Cl)CC2)cc1 | -15%
O=C(COC(=O)CCNS(=O)(=O)c1ccccc1)Nc1ccc(OC(F)F)cc1 | -10%
CCOc1ccc(N(CC(=O)Nc2ccc(C)c(C)c2)S(=O)(=O)c2c(C)[nH]c(=O)[nH]c2=O)cc1 | 13%
Cc1ccc2n(n1)c(=O)c(Cc1ccccc1)c([O-])[n+]2-c1ccccc1 | -17%
CCCC(=O)NCCc1nc2ccccc2n1CC(=O)c1ccccc1 | -2%
Cc1cc(Cl)ccc1NS(=O)(=O)c1cc2[nH]c(=O)c(=O)[nH]c2cc1C | -6%
Cc1cccc(C)c1OCCN1CCCC1 | 9%
OCC1(Cc2ccccc2)CCN(C2CCN(c3ccc(F)c(F)c3)CC2)CC1 | -17%
O=C1CC(/C=C/c2ccccc2)(C(=O)NC2CCCC2)N1c1ccc(S(=O)(=O)N2CCCC2)cc1 (centres undefined) | -8%
O=S(=O)(c1ccc(OC(F)(F)F)cc1)N1CCCC(c2ccccc2)C1 (centres undefined) | -16%
COC(=O)c1ccc(CNC(=O)COC(=O)c2cccs2)cc1 | 16%
CCC(=O)N1CCN(c2ccc(NC(=O)COc3ccccc3[N+](=O)[O-])cc2)CC1 | -15%
CN(C)Cc1c(C(=O)N/N=C/c2ccco2)nnn1-c1nonc1N | 7%
O=C1c2ccccc2S(=O)(=O)N1Cc1cc(=O)n2ccsc2n1 | 0%
COc1ccc(CN(CC(=O)NCC2CCCO2)C(=O)CCC(=O)Nc2cc(C)on2)cc1 (centres undefined) | -11%
CC(C)CC1=NN(C(=O)c2ccco2)C(O)(C(F)(F)F)C1 (centres undefined) | -2%
CC(C)c1nc2sc3c(NCc4ccccc4)ncnc3c2c2c1COC(C)(C)C2 | 3%
COc1ccc(Br)cc1-c1noc(-c2ccccc2F)n1 | -10%
COC(=O)c1ccc(CSc2nc3c(c(=O)[nH]2)CCC3)cc1 | 21%

(continued)
smiles | VDR inh
O=C(NCc1ccco1)c1ccc(N2CCCCC2)c([N+](=O)[O-])c1 | -20%
Cc1ccc(NS(=O)(=O)c2cccc([N+](=O)[O-])c2)nc1 | 9%
O=C(O)/C=C\C(=O)Nc1cccc(NC(=O)c2ccccc2)c1 | 2%
COc1ccc(-c2ccc3nnc(SCC(=O)NCC4CCCO4)n3n2)cc1 (centres undefined) | 13%
Cc1ccc(CNC(=O)c2cccnc2Cl)cc1 | 19%
CC(C)CC(=O)N1CCN(c2ccc([N+](=O)[O-])cc2Cl)CC1 | -24%
COC(=O)C1=C(C)N(Cc2ccccc2)C(=NCCc2cccnc2)N[C@H]1c1ccc(Br)cc1 | -1%
Cc1cccc(NS(=O)(=O)c2ccc3c(c2)OCCO3)c1 | -7%
COc1ccccc1N(C)S(=O)(=O)c1ccc(C(=O)Nc2ccc(C)cc2C)cc1 | 5%
O=C(O)c1cc(N=Cc2c(O)c3ccccc3oc2=O)ccc1O | -11%
CCc1[nH]nc(C(=O)N2CCCC(CO)(Cc3ccc(F)cc3F)C2)c1C (centres undefined) | -8%
O=C(Nc1ccc(F)cc1)Nc1nnc(SCC(=O)N2CCCCC2)s1 | 3%
CCn1cc(C(=O)NCc2ccc(Cl)cc2)c(=O)c2cc(S(=O)(=O)N3CCc4ccccc4C3)ccc21 | -9%
CS(=O)(=O)c1ccc(Cl)c(NC(=O)c2cccc(N3C(=O)CCC3=O)c2)c1 | -1%
CC(=O)c1cccc(NC(=O)CCS(=O)(=O)c2cccc3nonc23)c1 | -3%
OCCOCCNc1ncnc2nc[nH]c12 | -11%
COc1ccc(/C=C2\CCCCC2=O)cc1 | 2%
Cc1ccc(C(=O)NNC(=O)c2ccccc2)cc1S(=O)(=O)N1CCCCC1 | 4%
O=C(O)c1cc(Sc2ccc(Br)cc2)nc2ccccc12 | -9%

This is a subset; count on the stated rates, not on these rows.
